# Screening data: PubChem, Broad Institute
# ALR H2O2 inh – human ALR oxidase inhibition via reduced H2O2 | P55789 | purified ALR, DTT oxidation, H2O2 HRP-luminol luminescence | inhibition, % (concentration not given with the values) | hit rate 3.8% among 290,000 | AID 485317;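 active = mean and each replicate at 75% or more; inconclusive = only one of the two met; inactive = neither met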;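 also: stock transfer was 7.5 nL into about 7.5 µL; 0% = neutral wells and 100% = wells with inactivated enzyme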
# Target sequence (P55789 whole entry, looked up): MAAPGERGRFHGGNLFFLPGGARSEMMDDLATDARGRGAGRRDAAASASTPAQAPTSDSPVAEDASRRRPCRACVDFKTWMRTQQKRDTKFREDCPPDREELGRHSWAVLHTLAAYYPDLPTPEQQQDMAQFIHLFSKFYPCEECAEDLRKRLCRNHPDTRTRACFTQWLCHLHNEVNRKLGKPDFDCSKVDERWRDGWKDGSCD
# T cruzi inh – T. cruzi replication inhibition; AID 1885; hit rate 1.4% among 300,000; inhibition, % (concentration not given with the values); T. cruzi beta-gal in NIH3T3, luminescence, 90 h;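 active = mean inhibition across valid replicates above about 55%, limit read from the data; inconclusive = mean below that limit but half or more replicates reach it; inactive = mean below it, under half of replicates reach it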;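 also: signal also drops with host cell toxicity which is not excluded here; 0% = plate median of DMSO wells and 100% = zero luminescence signal; higher percent means less beta-gal luminescence so fewer parasites; stock transfer was 50 nL into about 50 µL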
# Beta cell apopt – blocks beta cell apoptosis; AID 435005; hit rate 0.8% among 300,000; protection from apoptosis, % (concentration not given with the values); INS-1E cytokine-induced death, ATP luminescence, 48 h; percent of positive-control rescue, neutral wells zero;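 active = all replicates at 75% or more, or half of them and the mean; inconclusive = half reach 75% but not the mean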;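 also: 0% = cytokine-treated negative control wells and 100% = positive control rescue; higher means more ATP so stronger rescue from cytokine killing; wells of about 40 µL received 100 nL stock; the first replicate is given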
# Calb FLC – affects C. albicans growth with fluconazole. C. albicans CaCi-2 (fluconazole-resistant clinical isolate) + fluconazole, Alamar Blue growth, 48 h. growth inhibition, % (test concentration not listed). hit rate 0.57% among 300,000;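 active = most replicates above 75%; inconclusive = exactly half above 75%; inactive = most below 75%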;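 also: all wells also contain fluconazole at 8 µg/ml as a sub-toxic cotreatment; 0% = median of DMSO wells and 100% = median of geldanamycin control wells; wells of about 8 µL received 7.5 nL stock; the first replicate is given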
# AF4-AF9 inh – blocks AF4 peptide binding to human AF9; AlphaScreen, biotin-AF4 peptide binding to FLAG-AF9; P42568; hit rate 0.47% among 350,000; AID 651704; inhibition, % at 10 µM;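 active = every replicate reaching a set inhibition limit, whatever the replicate mean, cut at about 25% in these data; inconclusive = mean inhibition reaches that limit but some replicates miss it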;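 also: 0% = plate neutral control median and 100% = total signal loss; the record names both 10 and 1 µM as test concentration; the first replicate is given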
# Target sequence (P42568 whole entry, looked up): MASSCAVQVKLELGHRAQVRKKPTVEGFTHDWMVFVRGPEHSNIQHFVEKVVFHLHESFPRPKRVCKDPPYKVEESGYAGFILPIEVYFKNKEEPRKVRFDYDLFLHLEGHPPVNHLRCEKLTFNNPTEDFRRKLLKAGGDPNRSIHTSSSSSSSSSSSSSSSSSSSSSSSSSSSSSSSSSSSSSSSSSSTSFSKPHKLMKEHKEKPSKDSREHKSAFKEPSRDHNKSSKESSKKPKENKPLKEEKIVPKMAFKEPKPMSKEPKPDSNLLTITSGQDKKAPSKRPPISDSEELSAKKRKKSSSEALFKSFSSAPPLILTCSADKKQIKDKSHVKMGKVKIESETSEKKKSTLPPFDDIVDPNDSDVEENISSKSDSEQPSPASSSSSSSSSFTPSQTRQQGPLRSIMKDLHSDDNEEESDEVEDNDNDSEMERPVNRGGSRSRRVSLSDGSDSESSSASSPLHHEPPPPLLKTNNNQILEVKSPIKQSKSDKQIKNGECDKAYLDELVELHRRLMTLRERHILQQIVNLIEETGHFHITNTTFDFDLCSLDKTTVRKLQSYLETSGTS
# The depositor's hits bear a star; ? = inconclusive; · = no result given.
SMILES,ALR H2O2 inh,T cruzi inh,Beta cell apopt,Calb FLC,AF4-AF9 inh
CC(C(=O)O)N1C(=O)/C(=C/c2cccn2C)SC1=S (configuration not stated),12,·,-6,·,·
O=C(Nc1ccncc1)c1cccs1,0,·,0,·,·
O=C(CSc1nc2nn(-c3ccccc3)c(=O)c-2c2n1CCCCC2)c1ccc(O)c(O)c1,92*,·,1,·,·
CCn1c(/N=C/c2ccccc2NS(=O)(=O)c2ccc(C)cc2)nc2ccccc21,-44,·,-4,·,·
CCOC(=O)C1CCN(C(=O)c2ccco2)CC1,2,·,-5,·,·
Cc1cccc(C)c1-n1nnnc1S(=O)(=O)Cc1ccccc1Cl,27,·,4,·,·
C=CCN(CC=C)S(=O)(=O)c1ccc(NC(=O)COc2ccccc2OC)cc1,-3,·,-5,·,·
CC(C)C[C@H]1CN=C(Nc2ccccc2)N1CCc1cccc(F)c1,2,·,-5,·,·
COc1cccc(N(C(=O)c2ccn[nH]2)C2(C(=O)Nc3c(C)cccc3C)CCCCC2)c1,-4,·,-1,·,·
CC(=O)Nc1ccc(S(=O)(=O)N2CCN(C(=O)c3ccccc3F)CC2)cc1,15,·,1,·,·
CCC[C@@H](CN1CCC[C@H]1CN1C(N)=NC[C@@H]1Cc1ccccc1)N1C[C@@H](Cc2ccccc2)N(CCCC2CCCC2)C1=N,-7,·,-3,·,·
O=C(CSc1nnc(Cc2cc(=O)[nH]c(=O)[nH]2)n1-c1ccc(Cl)cc1)NCC1CCCO1 (configuration not stated),-1,·,1,·,·
COc1cc2nc(/C=C/c3cc(OC)c(OC)c(OC)c3)sc2cc1SC,-9,·,7,·,·
CC(C)(C)C1C/C(=C/c2ccco2)C(=O)/C(=C/c2ccco2)C1 (configuration not stated),96*,·,4,·,·
COCCn1c(-c2ccc(OC(F)(F)C(F)C(F)(F)F)cc2)nc2c1c(=O)[nH]c(=O)n2CC(C)C (configuration not stated),-3,·,2,·,·
C#CCOCCOCCOCCNc1nc(N2CCN(C(=O)CCCCCCCCCCNC(=O)[C@H](CCCCN)n3cc(C[C@@H](C)CC)nn3)CC2)nc(N2CCN(C(=O)CCCCCCCCCCNC(=O)[C@H](CCCN=C(N)N)n3cc(C[C@@H](C)CC)nn3)CC2)n1,-21,·,99*,·,·
c1ccc(-c2ccc(OCCCn3cncn3)cc2)cc1,-13,·,-2,·,·
COC(=O)c1ccc(NC(=O)c2ccc3c(c2)NC(=O)C2CCCN32)cc1 (configuration not stated),-7,·,0,·,·
COc1ccc2cc(C(c3nnnn3C(C)(C)C)N3CCc4ccccc4C3)c(=O)[nH]c2c1 (configuration not stated),-3,·,25,·,·
COc1cc(NC(=O)CN2CCN(S(=O)(=O)c3ccc(C(C)C)cc3)CC2)cc(OC)c1,0,·,-5,·,·
c1ccc(Cn2cnc3ccccc32)cc1,-21,·,0,·,·
C=CCSc1nnc(NC(=O)CSc2ccccn2)s1,-2,·,-6,·,·
CC(=O)Nc1cnc2ccccc2n1,-15,·,4,·,·
CCC(C)(c1nnnn1-c1c(C)cccc1C)N(N=O)c1ccccc1Cl (configuration not stated),-50,·,-4,·,·
O=S(=O)(c1ccccc1)N1CCN(Cc2cccc(Cl)c2)CC1,-3,·,-3,·,·
Cc1ccc(-c2csc(NC(=O)c3c(C)noc3C)n2)s1,?,·,124*,·,·
O=C(Nc1ccon1)c1sc2cc(F)ccc2c1Cl,-7,·,2,·,·
CC(C)CN(C(=O)COC(=O)C1c2ccccc2Oc2ccccc21)C1CCS(=O)(=O)C1 (configuration not stated),2,·,-6,·,·
CCOc1ccc(N(Cc2cc3cc(OC)ccc3[nH]c2=O)C(=O)C2CCCO2)cc1 (configuration not stated),-12,·,0,·,·
COc1ccc(S(=O)(=O)N2CCCCC2)cc1C(C)C,-17,·,-5,·,·
CCOC(=O)c1cnc2sc3c(n2c1=O)CCCC3,31,·,54,·,·
N/C(=N\OS(=O)(=O)c1ccccc1)c1cccnc1,-26,·,-2,·,·
CCN(CC)C(=O)COc1ccc2oc(C)c(C(=O)OC)c2c1,3,·,-7,·,·
O=C(CCCCn1c(=O)c2ccccc2n(Cc2ccc(F)cc2)c1=O)NCc1ccco1,0,·,-1,·,·
CC(=O)NC1(c2ccccc2)CCN(c2nc(C)cc(C)n2)CC1,0,·,-3,·,·
O=C1C=CC(=O)N1CCCCCCN1C(=O)C=CC1=O,31,·,65,·,·
C#CCOCCOCCOCCNc1nc(N2CCN(C(=O)CCCCCCCCCCNC(=O)[C@H](CCCCN)n3cc(CCO)nn3)CC2)nc(N2CCN(C(=O)CCCCCCCCCCNC(=O)[C@H](CCCN=C(N)N)n3cc(C[C@@H](C)CC)nn3)CC2)n1,34,·,63,·,·
COC(=O)c1cn(C(=O)c2cccs2)c2ccccc12,-2,·,-7,·,·
CC(C)C[C@@H]1NC(=O)[C@H](CO)NC(=O)c2cc([N+](=O)[O-])cc(I)c2OCC[C@@H](C(N)=O)NC1=O,-7,·,-10,·,·
O=C(Cn1cnc2ccccc2c1=O)NCC(=O)N1CCN(c2ccccn2)CC1,-5,·,-7,·,·
CC(C)[C@]1(c2ccccc2)ON(c2ccccc2C(F)(F)F)C1=O,3,·,2,·,·
O=S(=O)(c1cccc(C(F)(F)F)c1)N1CCN(S(=O)(=O)c2ccc3c(c2)OCCO3)CC1,-7,·,-16,·,·
CCOc1ccc(NC(=O)CSc2nnc(-c3ccccc3Cl)n2Cc2ccco2)cc1,-3,·,-4,·,·
O=C1NC(Cc2ccc(O)cc2)c2nc3ccc(Cl)cc3c(=O)n2-c2ccccc21 (configuration not stated),2,·,-3,·,·
CCOC(=O)c1cccc(Nc2nc(C)cc(C)n2)c1,-5,·,-2,·,·
Cn1c(N)c(C(=O)COC(=O)c2ccccc2C(=O)c2ccc(Cl)c([N+](=O)[O-])c2)c(=O)n(C)c1=O,-7,·,-9,·,·
CC(=O)OC[C@]12CC[C@H]3[C@@](C)(CC[C@H]4C(C)(C)CCC[C@]34C)[C@@H]1C[C@@H](C1=CC(=O)O[C@@H]1OC(C)=O)O2,-3,·,92*,·,·
COc1cc(C(=S)N2CCC(C(N)=O)CC2)ccc1O,66,·,-1,·,·
CCOc1nc(SCCOc2ccc(C)cc2)nc(N(C)C)n1,-3,·,9,·,·
CSc1nsc(/C=C/Nc2ccc(F)cc2F)c1C#N,-18,10,-3,·,·
CCOC(=O)C1CCN(c2cc(C)nc3cc(-c4cccc(F)c4)nn23)CC1,2,-1,-2,·,·
Cc1c(Cl)cccc1NC(=S)N=Nc1c(O)n(CN2CCOCC2)c2ccccc12,-18,63*,46,·,·
O=C1/C(=C\c2cccs2)Sc2ccc3ccccc3c21,-5,20,5,·,·
CN1CCc2c(sc(NC(=O)c3ccc4ccccc4c3)c2C(N)=O)C1,6,55*,7,·,·
NS(=O)(=O)c1ccc2nc(NC(=O)c3ccc4ncsc4c3)sc2c1,-9,-4,-2,·,·
O=c1ccnc(Sc2ncccc2[N+](=O)[O-])[nH]1,-13,·,-1,4,·
Cc1ccccc1OCCn1c(=O)sc2ccccc21,-2,·,0,0,·
COC(=O)c1cc2n(n1)CCN(Cc1ccccc1F)C2=O,1,·,-5,4,·
Cc1ccc(-c2noc(CCC(=O)NCCN3CCc4ccccc4C3)n2)cc1,3,·,-3,-14,·
CCCC(c1nnnn1Cc1ccccc1)N1CCC(C(N)=O)CC1 (configuration not stated),-26,·,-1,11,·

# (list continues)
SMILES,ALR H2O2 inh,T cruzi inh,Beta cell apopt,Calb FLC,AF4-AF9 inh
Cc1cccc(OCCn2c(=O)sc3ccccc32)c1,-5,·,4,-4,·
COc1cc(OC)c(C(=O)COc2ncnc3ccccc23)c(OC)c1,-9,·,1,-1,·
CC(C)NS(=O)(=O)c1ccc(OCC(=O)NCc2ccc3c(c2)OCO3)c(Cl)c1,3,·,-3,6,·
O=C(CCc1nc(-c2ccccc2F)no1)NCCN1CCOCC1,-1,·,10,-4,·
CN1CCN(C(=O)c2ccccc2-c2nc(-c3ccccc3)no2)CC1,-5,·,-5,-2,·
O=C(Nc1nncs1)c1ccccc1Br,-6,·,1,-4,·
Cc1cc(C)n(-c2nc(NCc3cccnc3)c3c4c(sc3n2)COC(C)(C)C4)n1,4,·,21,4,·
COC(=O)c1ccsc1NC(=O)CSc1nnnn1Cc1ccccc1,-10,·,-1,17,·
COc1cccc(/C=N\NC(=O)c2cc(OCC(F)(F)F)ccc2OCC(F)(F)F)c1,0,·,6,1,·
CN(c1ccc(C(=O)NCc2cccnc2)cc1)S(C)(=O)=O,-13,·,-4,-2,·
CCC(C)(C)NC(=O)CN(C(=O)CCC(=O)Nc1cc(C)ccn1)c1ccc2c(c1)OCO2,-14,·,-2,22,·
N#CC(C(=O)NC1CC1)c1nc2ccccc2nc1N1CCCC1 (configuration not stated),66,·,1,0,·
Cn1c(N)c(C(=O)NCc2ccccc2Cl)sc1=S,22,·,-4,10,·
COc1ccc(OC)c(NC(=O)C2C3CC4OC(=O)C2C4C3)c1 (configuration not stated),-10,·,4,19,·
CC1CCCc2sc3nc(NCc4ccco4)n4ncnc4c3c21 (configuration not stated),7,·,2,16,·

# 3 compounds out of the list, arranged by molecular weight, rising.
SMILES,ALR H2O2 inh,T cruzi inh,Beta cell apopt,Calb FLC,AF4-AF9 inh
O=C(Nc1nncs1)c1ccccc1Br,-6,·,1,-4,·
Cc1cccc(OCCn2c(=O)sc3ccccc32)c1,-5,·,4,-4,·
CN1CCN(C(=O)c2ccccc2-c2nc(-c3ccccc3)no2)CC1,-5,·,-5,-2,·

# Next entries:
SMILES,ALR H2O2 inh,T cruzi inh,Beta cell apopt,Calb FLC,AF4-AF9 inh
COc1ccc(-c2cc(C(F)(F)F)n3nc(C(=O)Nc4cc(C)on4)cc3n2)cc1OC,-14,·,2,0,·
CC(C)C(c1nnnn1C(C)(C)C)N1CCN(c2cccc(Cl)c2)CC1 (configuration not stated),-3,·,0,7,·
Cc1ccc(S(=O)(=O)/N=C2/NC(=O)/C(=C\c3cc(Br)cc(Br)c3O)S2)cc1,99*,·,-3,123*,·
CN(c1ccc(C(=O)Nc2cccnc2)cc1)S(C)(=O)=O,-15,·,-2,6,·
Cc1ccc(NC(=O)C2C3CC4OC(=O)C2C4C3)cc1Cl (configuration not stated),-1,·,-4,-4,·
CC1(C)CC(C)(c2ccc(O)cc2O)N(c2ccc3ccccc3c2)C(=S)N1 (configuration not stated),-6,·,8,-3,·
COc1ccc(NC(=O)NC2CCCCCCC2)c(OC)c1,-8,·,-1,-24,·
Cc1ccc(NC(=O)CN(c2ccccc2)S(=O)(=O)N(C)C)cc1C,-1,·,-2,8,·
O=C(NCC1CCCO1)c1ccccc1-c1nc(-c2ccccc2)no1 (configuration not stated),-4,·,-2,-23,·
O=C(Cn1nnc(-c2ccncc2)n1)N(C1CCCCC1)C1CCCCC1,-4,·,-5,13,·
O=C(c1cnc2c(c1)COc1ccc(Cl)cc1-2)c1ccccc1O,-3,·,-2,-4,·
CCC(C)(C)n1nnnc1C(c1ccc(O)c(OC)c1)N1CCN(c2nc3ccccc3s2)CC1 (configuration not stated),1,·,-11,6,·
COc1ccccc1-c1ccc(Nc2ccc(C(=O)N3CCOCC3)cc2)nn1,-5,·,-2,2,·
CSCC[C@H](NC(=O)OC(C)(C)C)c1nnc(SCc2ccc(F)cc2)o1,-8,·,0,-9,·
Cc1c(NC(=O)c2cnn3c2NC(c2ccco2)CC3C(F)(F)F)c(=O)n(-c2ccccc2)n1C (configuration not stated),-2,·,4,11,·
CCOC(=O)NC(Nc1ncccn1)(C(F)(F)F)C(F)(F)F,5,·,2,3,·
CCN1C(=O)CS/C1=N\c1nccs1,0,·,-2,5,·
COc1ccc(N2C(C(C)=O)=NN(c3ccccc3)C2c2cccs2)cc1 (configuration not stated),1,·,5,-5,·
O=c1c2ccccc2nc2sc3ccccc3n12,1,·,8,5,·
COC(=O)c1cccc(C(=O)Nc2cnc3ccccc3c2)n1,3,·,0,-7,·
O=C(NCc1ccco1)c1cccc(S(=O)(=O)N2CCCCC2)c1,1,·,-5,5,·
CCOc1ccc(/C=c2\sc3nc(-c4ccco4)nn3c2=O)cc1OCC,18,·,-3,20,·
N#CCCn1c(SCC(=O)NCCc2ccc(F)cc2)nc2ccccc21,-1,·,-6,32,·
CCCCn1c(C)cc2cc(O)ccc21,72,·,5,16,·
CN(C)c1ccc(N2C(=O)CC(Nc3ccc(N4CCOCC4)cc3)C2=O)cc1 (configuration not stated),63,·,-1,-9,·
O=C(O)c1cccc(-n2cnnn2)c1,-3,·,-2,-1,·
CN(C)c1ccc(Nc2c3c4c(cccc4n(C)c2=O)C(=O)c2ccccc2-3)cc1,·,·,-5,·,64*
Cc1ccc(C)c(Sc2ccc(S(=O)(=O)Nc3ccc(C(=O)O)cc3)cc2)c1,·,·,-7,·,-1.0

# A portion of the library. The share of hits here may be higher or lower than overall.
